UCH37 inh – inhibitors of human UCH37 deubiquitinase, primary screen, biochemical, Ub-AMC cleavage, fluorescence. purified proteasome/UCH37. inhibition, % (concentration not given with the values). 330,000 tested, 0.33% active. AID 588478, 2011;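 active = mean of two replicates above 20%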;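 note: 0% = compound-free wells with enzyme and 100% = wells lacking proteasome; stock transfer was 100 nL into about 20 µL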
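Material: human UCH37 enzyme supplied as purified proteasome complex. Measure: % inhibition of Ub-AMC cleavage fluorescence. Medium: pH 7.4 Tris-HCl (50 mM) with ovalbumin, ATP-MgCl2, DTT. Times: 30 min preincubation with enzyme, 25 min cleavage at room temperature. Detection: AMC fluorescence intensity at 355/460 nm.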
T cruzi repl – inhibitors of intracellular T. cruzi growth, primary screen, luminescence, NIH3T3 host cells. T. cruzi beta-gal in NIH3T3, 90 h. inhibition, % (concentration not given with the values). 300,000 tested, 1.4% active. AID 1885, 2009;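 active = mean inhibition across valid replicates above about 55%, limit read from the data; inconclusive = mean below that limit but half or more replicates reach it; inactive = mean below it, under half of replicates reach it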;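 note: signal also drops with host cell toxicity which is not excluded here; 0% = plate median of DMSO wells and 100% = zero luminescence signal; higher percent means less beta-gal luminescence so fewer parasites; stock transfer was 50 nL into about 50 µL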
Bfl-1 A1 inh – caspase 3/7 activation in MEF A1-2A-BIM cells, primary screen, A1 inhibitor project, cell-based, luminescence, HTS; Caspase-Glo 3/7 luminescence, 3 h; percent of clofoctol response, vehicle zero; caspase activation, % (no concentration beside the values); 330,000 tested, 0.066% active;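 active = over half of replicate activation scores above 10%, or exactly half above 10 with the replicate mean above 10; inconclusive = replicate mean below 10 yet half the replicates above 10; inactive = over half of replicates below 10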;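 note: wells of about 30 µL received 50 nL stock; many hits fall short of the cut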
RanGTP-Imp inh – inhibitors of RanGTP-importin-beta interaction, primary screen, biochemical, FRET, CFP-Ran, YFP-importin-beta, homogeneous; cell-free CFP-Ran/YFP-importin-beta FRET ratio; inhibition, % (test concentration not listed); AID 2216, 2009; 300,000 tested, 1.1% active;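 active = most replicates above 15%; inconclusive = exactly half above 15%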;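 note: 0% = DMSO wells and 100% = Ran loaded with GDP instead of GTP; wells of about 40 µL received 100 nL stock; the first replicate is given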
LANA-H2A inh – blockers of LANA interaction with H2A/H2B – biochemical, FP readout, HTS, primary screen. Protein LANA1 (Human herpesvirus 8 type P (isolate GK18)), Q9QR71. cell-free LANA-H2A/H2B peptide, fluorescence polarization. inhibition, % (concentration not given with the values). 320,000 tested, 0.6% active; in the data active = inhibition mostly above about 10%, no sharp cut-off; inactive = mostly below about 6.7%;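 note: stock transfer was 7.5 nL into about 10 µL; 0% = median of vehicle wells and 100% = median of positive control wells; one replicate is shown; the record names a cut of 25% in any replicate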
Target sequence (Q9QR71 whole entry, looked up): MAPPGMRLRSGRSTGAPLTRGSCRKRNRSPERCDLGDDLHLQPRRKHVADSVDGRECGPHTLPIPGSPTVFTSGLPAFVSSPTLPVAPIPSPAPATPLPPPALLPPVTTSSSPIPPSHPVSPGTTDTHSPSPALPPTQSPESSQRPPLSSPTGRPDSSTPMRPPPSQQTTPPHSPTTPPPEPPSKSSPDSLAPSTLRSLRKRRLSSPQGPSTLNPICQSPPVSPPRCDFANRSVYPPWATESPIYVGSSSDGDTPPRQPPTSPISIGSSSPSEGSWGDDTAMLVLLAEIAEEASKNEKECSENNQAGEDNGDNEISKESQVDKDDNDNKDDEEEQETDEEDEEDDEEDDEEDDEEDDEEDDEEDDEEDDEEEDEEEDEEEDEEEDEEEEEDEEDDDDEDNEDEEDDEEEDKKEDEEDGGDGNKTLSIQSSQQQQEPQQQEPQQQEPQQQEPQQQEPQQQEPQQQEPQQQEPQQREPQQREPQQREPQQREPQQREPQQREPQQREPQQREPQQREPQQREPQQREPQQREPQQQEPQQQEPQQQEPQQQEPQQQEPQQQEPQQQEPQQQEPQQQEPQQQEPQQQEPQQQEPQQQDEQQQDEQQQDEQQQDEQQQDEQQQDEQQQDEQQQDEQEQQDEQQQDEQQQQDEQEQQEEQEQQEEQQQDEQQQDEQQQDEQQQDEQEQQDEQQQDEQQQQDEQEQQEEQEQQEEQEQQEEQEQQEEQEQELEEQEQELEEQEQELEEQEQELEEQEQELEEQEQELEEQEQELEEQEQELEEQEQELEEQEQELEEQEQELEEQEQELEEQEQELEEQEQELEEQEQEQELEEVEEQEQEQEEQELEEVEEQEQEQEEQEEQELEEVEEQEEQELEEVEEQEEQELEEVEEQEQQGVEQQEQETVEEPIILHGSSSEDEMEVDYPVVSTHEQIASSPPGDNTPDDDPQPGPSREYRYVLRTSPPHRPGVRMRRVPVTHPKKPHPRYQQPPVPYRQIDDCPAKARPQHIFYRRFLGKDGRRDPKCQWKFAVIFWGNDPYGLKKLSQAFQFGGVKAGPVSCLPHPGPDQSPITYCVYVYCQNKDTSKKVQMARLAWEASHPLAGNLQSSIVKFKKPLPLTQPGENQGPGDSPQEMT
Calb FLC – C. albicans growth inhibition with fluconazole, primary screen, CaCi-2 strain, Alamar Blue fluorescence; growth inhibition, % (no concentration beside the values); C. albicans CaCi-2 (fluconazole-resistant clinical isolate) + fluconazole, 48 h; 300,000 tested, 0.57% active;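 active = most replicates above 75%; inconclusive = exactly half above 75%; inactive = most below 75%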;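 note: all wells also contain fluconazole at 8 µg/ml as a sub-toxic cotreatment; 0% = median of DMSO wells and 100% = median of geldanamycin control wells; wells of about 8 µL received 7.5 nL stock; the first replicate is given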
Beta2AR agonist – beta2AR agonists driving receptor internalization, primary screen, cell-based, FAP fluorogen, flow cytometry; response, % (concentration not given with the values); 340,000 tested, 0.43% active; Am2.2-beta2AR cells; reference of the scale not given here;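 active = response above a set limit, near 3 SD of response in nonfluorescent compounds, cut at about 42% in these data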;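 note: stock transfer was 100 nL into about 11 µL; a reference agonist was the positive control; negative values mostly stem from fluorescent compounds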
Beta apoptosis – inhibitors of cytokine-induced beta cell apoptosis, primary screen, luminescence; INS-1E cytokine-induced death, ATP luminescence, 48 h; percent of positive-control rescue, neutral wells zero; protection from apoptosis, % (no concentration beside the values); 300,000 tested, 0.8% active; AID 435005, 2010;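 active = all replicates at 75% or more, or half of them and the mean; inconclusive = half reach 75% but not the mean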;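 note: 0% = cytokine-treated negative control wells and 100% = positive control rescue; higher means more ATP so stronger rescue from cytokine killing; wells of about 40 µL received 100 nL stock; the first replicate is given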
* marks the source's active call; other numbers are inactive results; ? = inconclusive; . = not tested or not shown.

SMILES | UCH37 inh | T cruzi repl | Bfl-1 A1 inh | RanGTP-Imp inh | LANA-H2A inh | Calb FLC | Beta2AR agonist | Beta apoptosis
Cc1ccc(Nc2nc(N)c([N+](=O)[O-])c(N3CCOCC3)n2)cc1C | 3.8 | 14.0 | -0.4 | -2.0 | 2.0 | ? | 15.3 | -7.1
CC1CCc2[nH]nc(C(=O)O)c2C1 (configuration not stated) | 4.6 | -7.2 | 0.1 | -1.8 | -1.5 | 5.3 | 7.5 | .
O=C(CS(=O)(=O)c1ccccc1)Nc1cccnc1 | 0.1 | -9.8 | 0.5 | 3.6 | 0.4 | 13.7 | -0.4 | 0.3
COC(=O)Cn1c(O)c(N=NC(=O)CNC(=O)c2ccncc2)c2ccccc21 | 9.5 | -5.3 | 1.3 | -1.9 | 1.6 | 3.8 | -1.9 | -5.2
Cc1ccccc1NC(=O)Cc1cccc(C(F)(F)F)c1 | 0.9 | -10.4 | 0.9 | 4.6 | -2.2 | -19.1 | -5.0 | -0.1
CNc1snc(C)c1C(=O)OCC(=O)N(C)c1ccccc1 | . | . | -0.9 | . | -4.6 | . | -4.9 | 3.0
COc1ccc(Br)cc1C(=O)Nc1ccccc1N1CCN(C(=O)c2ccccc2)CC1 | -21.5 | 58.8* | 0.2 | 3.3 | -2.5 | 0.6 | 5.7 | 17.5
Oc1cccc(-c2nc3c4c(ncn3n2)-c2ccccc2CC42CCCC2)c1 | -0.7 | 30.4 | 1.1 | -3.9 | -1.1 | 21.0 | 9.1 | -4.5
CC(C)NC(=NCc1ccc(Cl)cc1Cl)Nc1ccccc1 | 3.9 | 28.1 | 0.3 | 2.3 | -0.5 | -28.2 | 14.0 | 0.7
CN(C)CCNS(=O)(=O)c1ccc(Cl)cc1 | 0.7 | 8.5 | 0.6 | 0.6 | -0.1 | -3.8 | 5.4 | -8.4
Cc1cc(Cl)ccc1C(=O)C1CCCN(C(=O)c2nonc2C)C1 (configuration not stated) | 4.4 | 5.0 | 2.7 | 2.0 | 0.7 | 4.3 | -3.8 | .
Cc1cc(SCC(=O)NN=C2CCN(C(C)C)CC2)c(C)cc1Br | 2.8 | 1.4 | 0.7 | 3.5 | -0.3 | ? | 9.5 | -6.5
COc1cc(C2CC(=O)NC3=C2C(=O)CC(C)(C)C3)cc(OC)c1O (configuration not stated) | 1.1 | -6.8 | 0.0 | ? | -4.6 | -3.0 | -1.4 | -4.0
Cn1c(CCNS(=O)(=O)c2ccc(F)cc2)nnc1SCc1cccnc1 | 3.9 | -0.9 | 0.5 | -2.8 | 8.4 | -4.0 | -1.2 | -6.3
COc1cc(SC)ccc1C(=O)Nc1ccccc1C#N | -3.3 | -6.5 | -1.2 | -0.1 | 2.5 | -15.6 | 7.6 | -2.7
CC(=O)N1N=C(c2ccccc2)OC1c1ccc([N+](=O)[O-])s1 (configuration not stated) | 8.3 | 84.1* | 1.0 | 7.2 | 2.2 | -13.5 | -3.3 | -10.0
Cc1ccc(C)c(N2CCN(c3nnnn3-c3ccccc3)CC2)c1 | 2.1 | 22.2 | 0.1 | -0.1 | 7.6 | -3.6 | 22.3 | 1.7
O=C(Cn1c(C(F)(F)F)nc2ccccc21)N1CCCC1 | -1.7 | 10.0 | -0.8 | -1.4 | 0.0 | -4.5 | -6.7 | -5.0
CCCn1cc(C(=O)OCC)c(=O)c2cc(F)c(F)cc21 | 4.2 | 2.9 | -0.3 | 1.3 | -4.4 | 7.3 | 8.7 | 0.8
CC(NS(=O)(=O)c1cccc(Cl)c1)C(=O)Nc1ccc(-c2nc3ccccc3s2)cc1 (configuration not stated) | -13.0 | 10.6 | -0.5 | 0.0 | -3.7 | -29.0 | 12.8 | 11.4
CC(=O)c1ccccc1NCC(=O)Nc1ccc(C)cc1 | -12.1 | -5.1 | 0.9 | 2.5 | -2.2 | 1.7 | -0.8 | -18.4
O=C(COC(=O)c1ccccc1[N+](=O)[O-])Nc1cc(S(=O)(=O)N2CCOCC2)ccc1N1CCCC1 | 2.5 | 36.8 | -0.7 | 3.5 | 0.6 | 1.8 | 2.3 | 2.7
CCOc1ccc(C(=O)NCCN2CCCC2)cc1 | 3.3 | 4.5 | 0.7 | 9.7 | -0.4 | -7.0 | -0.5 | 0.5
CC(C)CC(NC(=O)CCC(=O)OCC(=O)[C@@]1(O)CCC2[C@@H]3CCC4=CC(=O)C=C[C@]4(C)C3[C@@H](O)C[C@@]21C)C(=O)O (some centres not stated) | -2.2 | 15.8 | -0.3 | 4.4 | 0.5 | 0.2 | 4.3 | 10.0
COc1ccc(C(=O)Nc2cccc3c2CCCC3)cc1 | -0.6 | -9.3 | 3.3 | -4.6 | 0.6 | 1.5 | -12.4 | 3.8
Cc1c(C(=O)OCCOC(C)C)[nH]c2c1C(=O)CC(c1ccco1)C2 (configuration not stated) | 3.7 | 1.3 | 0.8 | -0.3 | -1.4 | 2.4 | 22.8 | 39.7
Nc1cc(=O)[nH]c(SCC(=O)NNC(=O)Cc2ccccc2)n1 | -1.7 | 1.6 | 0.6 | 0.6 | 1.1 | -4.6 | -4.2 | .
Cc1ccc(C(=O)NC(=S)NNC(=O)c2ccccc2O)cc1 | 4.8 | 0.8 | ? | -4.9 | -2.0 | -7.5 | 9.8 | 23.5
COc1ccc(-c2nnc(NC(=O)C3CCCN3S(=O)(=O)c3cccs3)o2)cc1 (configuration not stated) | 0.3 | -10.3 | 0.5 | -3.6 | -1.4 | -0.8 | 8.8 | -7.4
OC1O[C@H](c2ccc3c(c2)OCO3)[C@H]2CO[C@H](c3ccc4c(c3)OCO4)[C@@H]12 (some centres not stated) | 0.3 | -9.9 | 0.6 | 0.7 | -2.8 | -25.8 | -4.2 | -4.3
Cc1ccc(C2c3sc(=O)[nH]c3SC3C4CC(C5C(=O)N(C(C)C(=O)O)C(=O)C45)C23)cc1 (configuration not stated) | 1.1 | -12.9 | -0.4 | 57.8* | 0.9 | 2.1 | -6.4 | -1.1
C=C(C)c1cccc(C(C)(C)NC(=O)NCc2cccnc2)c1 | 1.8 | . | 1.2 | . | -1.4 | -16.4 | -2.2 | -10.3
O=C(CC(c1ccco1)S(=O)(=O)c1ccccc1)c1ccccc1 (configuration not stated) | 1.8 | -29.1 | 0.0 | ? | -6.2 | 44.4 | 1.1 | -8.8
CCOC(=O)Cn1nc(C)cc1NC(=O)c1cc(OC)c(OC)c(OC)c1 | 3.0 | 2.0 | 0.1 | 7.7 | 1.2 | -6.4 | 5.8 | -10.5
O=C(c1ccccc1)N1C(=O)C(c2ccccc2)Oc2ccccc21 (configuration not stated) | 7.1 | -6.7 | 0.5 | 1.5 | -1.7 | 53.1 | -0.5 | .
Nc1nnc(SCCN2C(=O)c3ccccc3C2=O)s1 | -1.4 | -14.7 | 0.2 | 0.8 | 11.7 | 9.5 | -1.5 | 4.4
COCC(=O)N1CCC(Oc2ccc(C(=O)N[C@H](C(=O)OC)C(C)C)cc2)CC1 | 2.3 | -1.5 | -1.1 | 2.2 | -3.8 | -0.1 | -2.4 | .
COc1ccc2oc(=O)c(C(=O)OCc3ccccc3)cc2c1 | -136.7 | -17.4 | -1.1 | 18.5* | 1.7 | 5.6 | -3.8 | -5.6
CCn1c(SCC(=O)N/N=C/c2ccc(OC)c(OC)c2)nc2ccccc21 | . | . | -1.2 | 2.2 | -6.9 | -1.2 | -1.9 | 4.4
Cc1cc(N2CCN(C)CC2)nc2ccc(NC(=O)CCC(=O)NCCc3ccc(Cl)cc3)cc12 | -46.3 | 37.1 | . | -2.0 | . | -3.9 | 22.9 | .
Cc1cc(C(=O)N/N=C/c2ccncc2)c2ccccc2n1 | . | -7.2 | 0.0 | 1.0 | -2.4 | 4.7 | 7.3 | .
O=C(NCCCCCCNC(=O)c1cccs1)c1cccs1 | 3.3 | 10.0 | -0.2 | 0.5 | -1.9 | 2.1 | -17.0 | 1.7
CS(=O)(=O)N1CCC(C(=O)Nc2ccc(C(N)=O)cc2)CC1 | 2.3 | -3.8 | 2.5 | 0.8 | -3.8 | -5.2 | -3.2 | -0.9
COc1ccc(S(=O)(=O)Nc2ccc(CC#N)cc2)cc1 | 0.5 | . | -0.5 | . | -3.9 | . | -13.5 | -2.9
CCOC(=O)c1cnc2ccc(C)cc2c1NCCN1CCOCC1 | 8.1 | 13.8 | -0.6 | 2.8 | -3.7 | -1.5 | 7.2 | .
COc1ccccc1C(=O)Nc1ccc(S(=O)(=O)Nc2nccs2)cc1 | 2.1 | 10.8 | 0.5 | -1.7 | 0.9 | -4.3 | 6.2 | -7.0
Cc1ccc(OCCn2cc(/C=C(\C#N)C(=O)NCC3CCCO3)c3ccccc32)cc1 (configuration not stated) | 2.9 | 7.8 | -0.2 | 2.1 | -5.3 | -5.2 | -3.0 | -10.8
COc1cc(C(C)=O)ccc1OCC(O)Cn1nc(C)c(C(C)=O)c1C (configuration not stated) | 0.7 | 2.6 | 0.0 | -2.5 | -4.4 | -1.5 | 5.9 | .
COc1ccc(Cl)cc1C(=O)Nc1ccc(S(N)(=O)=O)cc1 | 2.8 | -14.1 | 0.1 | ? | -0.8 | 24.4 | -27.3 | -0.7
C=CCn1c(=O)c2ccccc2n2c(SCC(=O)O)nnc12 | 2.0 | -2.8 | 0.0 | -0.7 | 1.6 | 14.9 | -8.0 | -3.9
Cn1c(=O)c2ccccc2n(CC(=O)N2CCCc3ccccc32)c1=O | 1.2 | -11.5 | 0.3 | 3.7 | -4.2 | 10.7 | 8.7 | -0.7
COCCn1c(SCC(=O)Nc2nnc(C)s2)nnc1-c1ccoc1C | 4.5 | -6.2 | 0.5 | -0.5 | 3.9 | 7.1 | 0.2 | 5.1
Cn1c(=O)c2c(nc(SCC(=O)NCC3CCCO3)n2C)n(C)c1=O (configuration not stated) | 0.3 | -8.2 | 0.6 | ? | 1.2 | -11.7 | 3.9 | -1.9
CC1CCCCC1NC(=O)COC(=O)c1cccn1C (configuration not stated) | 0.1 | . | 0.2 | . | 0.0 | . | 2.5 | -2.4
COC(=O)[C@@H](NC(=O)/C=C/c1ccc(OC)cc1)C(C)C | 1.0 | -8.1 | -2.1 | 0.5 | -1.8 | 26.3 | 5.3 | -3.5
COc1cc(/C=N/NC(=O)c2cc(-c3ccco3)nc3ccccc23)cc(OC)c1O | . | 7.9 | 0.5 | 2.8 | 1.4 | -8.9 | 5.2 | 4.2
COc1ccc(CN2CC(=O)N(c3ccccc3OC)C2=S)cc1OC | 1.4 | -22.6 | -0.1 | -0.9 | 2.7 | -7.4 | -4.0 | 2.1
COc1ccc(N2CCN(C(=O)c3ccc4c(=O)n(Cc5ccc6c(c5)OCO6)c(=O)[nH]c4c3)CC2)cc1 | 0.0 | 5.7 | 0.2 | -2.6 | 2.2 | 10.5 | 13.7 | 2.0

Source: PubChem BioAssay (several laboratories)

Rows were taken by chance; 4.3% or so of the library scored in one or more.
